D2 agonist: activates the human D2 dopamine receptor. P14416. DiscoveRx PathHunter D2 beta-arrestin, luminescence, 90 min; 100% = 57 uM dopamine signal. activation, % (concentration not given with the values). actives 0.084% (n = 360,000). AID 624465; in the data active = activation above about 40%; inconclusive = about 15% to 40%; inactive = below about 15%; note: compound concentration not given in the record; the text of the record calls up to 30% inactive
Target sequence (P14416 whole entry, looked up): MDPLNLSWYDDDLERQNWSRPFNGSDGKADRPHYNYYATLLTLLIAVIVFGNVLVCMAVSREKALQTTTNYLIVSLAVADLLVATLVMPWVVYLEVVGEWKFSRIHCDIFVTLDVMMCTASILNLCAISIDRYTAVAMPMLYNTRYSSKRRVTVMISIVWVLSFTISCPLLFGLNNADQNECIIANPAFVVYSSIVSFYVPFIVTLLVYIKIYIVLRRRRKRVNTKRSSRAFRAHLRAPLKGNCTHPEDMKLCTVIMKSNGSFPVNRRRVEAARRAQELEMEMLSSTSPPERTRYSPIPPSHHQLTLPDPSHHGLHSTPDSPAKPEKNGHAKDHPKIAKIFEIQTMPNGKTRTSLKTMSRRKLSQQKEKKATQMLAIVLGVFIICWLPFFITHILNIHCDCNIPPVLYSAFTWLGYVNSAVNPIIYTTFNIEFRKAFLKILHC
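DiscoveRx PathHunter D2 beta-arrestin cells (2,100/well) attached overnight, then compound-stimulated 90 min at 37 C in HBSS/10 mM HEPES/0.1% Tween-20 buffer; beta-galactosidase complementation read by luminescence after 1 h at ambient temperature. Dopamine 57 uM final (EC100) as control.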
Six1-Eya2 blk: Six1/Eya2 interaction inhibition; Q15475+O00167; AlphaScreen GST-Six1/His-Eya2 binding, biochemical; hits give low values; control for the full effect not named in the record; activity change, % (no concentration beside the values); actives 0.56% (n = 360,000); in the data active = activity change below about -65%; inconclusive = about -30% to -65%; inactive = above about -30%; note: % is set by controls: 0 for no effect and ±100 for the full control effect; compound concentration not given in the record
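AlphaScreen with GST-Six1 and His-Eya2 (5X mix: 250 nM and 500 nM), glutathione donor and nickel acceptor beads; buffer 50 mM Tris pH 8.0, 300 mM NaCl, 1 mM TCEP; 1 h at 37 C in the dark.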
PINK1 modulator: modulators of PINK1 expression; actives 0.2% (n = 410,000); Potency, µM (highest dose often 76.6 µM), for inactives: at the top dose activation (PINK1 increase), hits mostly activators; PINK1 immunofluorescence, high-content cytometry, 24 h; active = well fitted activation curve with a large enough effect; inconclusive = small, poorly fitted or top-dose-only effect; inactive = flat fitted curve, though single readings scatter; cell line not stated here;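 note: potency is the fitted concentration of half-maximal effect; % of control where 0% means no effect; nearly all actives have a fitted effect of over 65% in size; a mitochondrial uncoupler was the plate control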
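A stable cell line was treated with compounds at 5 concentrations for 24 hours, with CCCP as control. PINK1 levels and mitochondrial localization were measured by immunofluorescence with mitochondrial, cell and nuclear markers after fixation, read by laser-scanning cytometry.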
CtBP-E1A inh: inhibitors of CtBP/E1A interaction. AlphaScreen GST-E1A/His-CtBP binding, 1536-well; hits give low values; control for the full effect not named in the record. activity change, % (test concentration not listed). actives 0.49% (n = 340,000). AID 651724; in the data active means activity change below about -65%; inconclusive means about -30% to -65%; inactive means above about -30%; note: % is set by controls: 0 for no effect and ±100 for the full control effect; compound concentration not given in the record
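Protein mix (5X: 125 nM each GST-E1A, His-CtBP) was incubated with pinned compound 2 h at 37 deg C in dark, in 50 mM Tris pH 8.0 buffer with 300 mM NaCl. Glutathione donor and nickel acceptor beads followed; AlphaScreen signal read after 1 h.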
TRPML1 ag: activates the human TRPML1 channel; Q9GZU1; activation, % (test concentration not listed); actives 0.12% (n = 410,000); TRPML1-expressing cells, Ca2+ dye fluorescence, FDSS; host cell line not named in the record; reference of the full effect not given here; in the data active = activation above about 50%; inconclusive = about 30% to 50%; inactive = below about 30%; note: 0% is about no effect; the text of the record puts the active cut at 80%
Target sequence (Q9GZU1 whole entry, looked up): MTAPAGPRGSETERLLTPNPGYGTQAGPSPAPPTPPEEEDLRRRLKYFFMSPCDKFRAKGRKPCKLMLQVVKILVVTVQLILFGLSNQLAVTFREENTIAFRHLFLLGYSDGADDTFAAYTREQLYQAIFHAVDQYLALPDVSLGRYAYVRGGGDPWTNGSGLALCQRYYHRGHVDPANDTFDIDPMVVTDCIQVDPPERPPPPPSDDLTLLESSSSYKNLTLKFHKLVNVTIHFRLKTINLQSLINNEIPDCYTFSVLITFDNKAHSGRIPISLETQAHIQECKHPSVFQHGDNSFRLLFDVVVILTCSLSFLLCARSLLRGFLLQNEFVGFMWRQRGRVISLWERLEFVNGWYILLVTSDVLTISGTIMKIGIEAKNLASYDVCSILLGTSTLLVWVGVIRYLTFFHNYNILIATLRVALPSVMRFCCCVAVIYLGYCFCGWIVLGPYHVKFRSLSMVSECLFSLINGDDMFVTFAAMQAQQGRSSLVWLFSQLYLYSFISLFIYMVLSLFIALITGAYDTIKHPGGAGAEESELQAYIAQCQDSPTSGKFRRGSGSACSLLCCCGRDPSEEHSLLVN
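Kinetic FDSS Ca2+ read in Tet-induced TRPML1-DL cells (ABD Ca8 dye plus quencher, 45-90 min RT loading): baseline, then compound, then 110 s agonist window; EC80 agonist 54-4 at 4uM final added afterwards for a 110 s antagonist window.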
D2 PAM: human D2 receptor positive allosteric modulation | P14416 | DiscoveRx D2 beta-arrestin cells, luminescence, 90 min; 100% = 57 uM dopamine signal | potentiation, % (concentration not given with the values) | actives 0.23% (n = 360,000) | AID 624464; active = potentiation of 50% or more; inconclusive = 30% to 50%; inactive = 30% or less;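 note: compound concentration not given in the record; tested on top of an EC20 dose of dopamine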
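PathHunter beta-arrestin assay in DiscoveRx D2 cells. Compounds were added with an EC20 of dopamine (50 nM final) for 90 min at 37 deg C. Luminescence was read 1 h after detection reagent, with 57 uM dopamine as the EC100 control.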
* = called active by the depositor; ? = inconclusive; . = no result given; & = joins results of further samples; [ ] = another dose, or the depositor's remark. Hits appear at their usual frequency; any-hit rate near 1.3%.

SMILES	D2 agonist	Six1-Eya2 blk	PINK1 modulator	CtBP-E1A inh	TRPML1 ag	D2 PAM
Cc1cccc(NC(=O)NCc2ccc3c(c2)OCO3)c1C	-3.2	2.0	2.7%	5.7	0.3	-6.4
O=C(O)CCn1cc(-c2ccc(Cl)cc2)nc1-c1ccc(Cl)nc1	-4.5	4.2	3.0%	-3.6	-0.5	-11.6
Cc1ccc(NS(=O)(=O)c2cc(C(=O)Nc3cccc(N(C)S(C)(=O)=O)c3)ccc2C)c(C)c1	6.1	-3.8	4.8%	4.0	-0.6	23.7
Cc1ccc(C(=O)Nc2ccc3c(c2)nc2n3CCSC2)cc1	-0.7	-1.4	4.2%	3.3	-0.9	-8.9
O=C(CCn1nnc2ccccc2c1=O)N[C@@H](Cc1ccccc1)C(=O)O	2.4	0.8	1.9%[38.3 µM]	2.1	-0.2	-1.7
Cc1ccc2nc(C)cc(Cl)c2c1	-3.5	5.1	0.1%	6.7	-0.1	-3.2
O=C(OC1C2C=CC1C1C(=O)NC21)c1ccccc1 (stereo unspecified)	-4.1	1.5	1.0%	4.6	-0.5	0.3
NC(c1ccccc1)c1csc(Nc2ccccn2)n1 (stereo unspecified)	-5.9	-88.6*	3.9%	-90.4*	-0.4	-14.8
Cc1ccc(C)c(N2CC(C(=O)Nc3cc(C)on3)CC2=O)c1 (stereo unspecified)	-0.7	-1.4	1.8%	2.0	-0.3	4.7
CCOc1cc(N2CCOCC2)c(OCC)cc1NC1=NCCCCC1	2.8	4.5	-0.9%	-1.3	-1.7	22.2
COc1ccc(N(CC(=O)N2CCc3ccccc3C2)S(=O)(=O)c2c(C)[nH]c(=O)[nH]c2=O)cc1	-4.8	-4.0	-0.6%	8.7	-0.7	0.9
CC(C)C(OC(=O)c1ccco1)C(=O)NCc1cccs1 (stereo unspecified)	-6.0	-2.0	0.0%	6.0	0.2	-7.0
CCc1ccc(NC(=O)CN(C(=O)N2CCN(CC)CC2)S(=O)(=O)c2ccc(C)cc2)cc1	-0.7	3.7	2.2%	-4.8	-0.4	-12.2
Fc1ccc2nc(Nc3ccccc3)sc2c1	-4.4	-12.8	3.4%	-9.8	-0.3	-8.3
COc1ccccc1CCn1cnc2c3cc(C)ccc3n(C)c2c1=O	-2.0	-0.6	1.8%	0.6	3.9	-7.0

CtBP-E1A inh, entries above that show a hit.
| SMILES | D2 agonist | Six1-Eya2 blk | PINK1 modulator | CtBP-E1A inh | D2 PAM |
| --- | --- | --- | --- | --- | --- |
| NC(c1ccccc1)c1csc(Nc2ccccn2)n1 (stereo unspecified) | -5.9 | -88.6* | 3.9% | -90.4* | -14.8 |

More structures follow:
SMILES	D2 agonist	Six1-Eya2 blk	PINK1 modulator	CtBP-E1A inh	TRPML1 ag	D2 PAM
N#Cc1c(NC(=O)c2ccccc2)sc2c1CCC2	-6.1	6.3	7.3%	-0.9	-0.9	-10.3
CC(C)(C)NC(=O)C(c1ccc(Cl)cc1)N(CCO)C(=O)c1snc(C(N)=O)c1N (stereo unspecified)	-8.8	-1.6	-1.0%	8.0	-0.2	-7.2
O=C(c1ccco1)N1CCN(Cc2nnnn2CC2CCCO2)CC1 (stereo unspecified)	5.3	0.7	-0.1%	.	0.5	-6.6
O=C(Nc1ccc2oc(-c3cccc(F)c3)nc2c1)c1ccccc1F	-0.1	3.9	2.2%	-11.7	-0.6	8.9
CCOC(=O)Cc1c(C)nc(-c2ccccc2)[nH]c1=O	0.7	2.2	3.5%	-1.4	2.0	3.2
Cc1cccn2c(=O)c(/C=C(\C#N)C(=O)NCc3ccccc3)c(N3CCC(C(N)=O)CC3)nc12	-2.6	5.1	0.7%	-1.0	1.4	-5.5
COc1ccc(C2CC(c3ccccc3)=NN2C(=O)COC(=O)c2cc(S(=O)(=O)N3CCOCC3)ccc2F)cc1 (stereo unspecified)	-1.1	-9.6	2.4%	-15.6	-0.1	-3.3
Cc1cc(C(=O)N/N=C/c2cccs2)no1	-4.2	-20.8	-0.1%	-2.0	-0.3	-24.2
CS(=O)(=O)c1ccc2nc(NC3(C(F)(F)F)N=C4SCCN4C3=O)sc2c1 (stereo unspecified)	-0.6	16.2	0.9%[38.3 µM]	44.1	-0.2	-8.0
COc1ccc(/C=N/NC(=O)CC(=O)NC2CCCCC2)cc1	-4.1	4.0	-0.8%	-1.2	-0.1	-8.0
Cc1cc(C)cc(NCc2cc3c(cc2[N+](=O)[O-])OCO3)c1	1.3	?	2.4%[38.3 µM]	6.8	1.9	17.2
CCN1CCn2c3c(c4cc(Br)ccc42)CCCC31 (stereo unspecified)	-0.5	-15.7	13.8%	?	2.6	-8.8
Cc1ccc(C2CC(c3ccccc3)=NN2C(=O)CSc2nnc(-c3ccncc3)n2C)o1 (stereo unspecified)	-0.6	1.8	1.0%	7.2	0.0	-9.8
Cc1ccc(Nc2nc(C)c(CCC(C)C)c(=O)[nH]2)cc1	-3.4	-24.7	13.6%	8.9	0.2	-12.9
CCN1C[C@@H]2[C@@H]3C(=O)N(Cc4ccccc4)C(=O)[C@@H]3[C@](C)(C1=O)N2C(=O)c1ccc(Cl)cc1	0.9	4.0	-0.7%	6.4	0.3	-3.0
CC1(C)CC(=O)C2=C(C1)N(Cc1cccnc1)C(=O)C2(NC(=O)c1cccnc1)C(F)(F)F (stereo unspecified)	-1.3	7.5	0.2%	6.0	0.5	6.5
Cc1nc2ccccn2c(=O)c1NC(=O)c1cccs1	-2.8	5.2	0.3%	2.6	0.4	-29.6
COc1ccc(S(=O)(=O)Nc2ccccc2C(=O)NCc2cccnc2)cc1C	2.3	4.0	2.5%	5.3	-0.7	1.4
CCCCCNC(=O)C1c2ccccc2Oc2ccccc21	-2.3	9.8	-0.3%	.	1.8	-8.7
Cc1cc(Cl)ccc1Oc1cccc(C(=O)/C(C#N)=C/N(C)C)c1	-2.3	4.7	3.7%	0.6	1.7	4.9
CC(C)(C)c1nc(CN2CCOCC2)ccc1O	-1.1	4.3	4.8%	-1.0	0.6	-1.0
CC(NC(=O)NCC1CCCO1)(C(F)(F)F)C(F)(F)F (stereo unspecified)	-2.1	8.1	0.5%	5.8	-0.5	3.8
Cc1cccc2sc(NNC(=O)c3ccc(S(=O)(=O)N4CCc5ccccc5C4)cc3)nc12	1.0	0.1	8.7%	-13.6	0.0	3.5
COc1ccc(CN(C(=S)Nc2ccccc2)C2CC(=O)N(c3ccc(F)cc3)C2=O)cc1 (stereo unspecified)	1.5	-7.1	?	-1.7	-0.9	-10.9
Cc1cc(C)nc(NS(=O)(=O)c2ccc(NC(=O)C3CC(=O)N(c4ccccc4)C3)cc2)n1 (stereo unspecified)	1.0	-5.9	-2.8%[38.3 µM]	-9.5	-0.3	0.3
CSc1ccccc1NC(=O)COC(=O)CCc1ccccc1	-3.6	8.8	-1.0%	-3.7	0.3	-10.8
Cc1ccc(CNS(=O)(=O)c2cc3c(cc2C)NC(=O)CO3)cc1	-6.4	2.4	-0.2%&0.8%	0.9	-0.3&-0.3	-2.2
Cc1ccc(C(=O)CSc2nnc(-c3ccncc3)n2C)cc1	-0.2	8.0	0.2%	6.6	-0.5	-0.9
COc1ccc(-c2cc(CNS(=O)(=O)c3ccc(F)cc3)on2)cc1	2.9	-6.2	-1.3%	-20.2	-0.3	-3.5
Cc1cc(NC(=O)CCCC(=O)NCc2cccs2)no1	-4.1	2.8	-5.6%	5.4	0.1	-3.7

Another view of 2 compounds above.
molecule | D2 agonist | Six1-Eya2 blk | PINK1 modulator | CtBP-E1A inh | TRPML1 ag | D2 PAM
CSc1ccccc1NC(=O)COC(=O)CCc1ccccc1 | -3.6 | 8.8 | -1.0% | -3.7 | 0.3 | -10.8
CCCCCNC(=O)C1c2ccccc2Oc2ccccc21 | -2.3 | 9.8 | -0.3% | . | 1.8 | -8.7

(cont.)
SMILES	D2 agonist	Six1-Eya2 blk	PINK1 modulator	CtBP-E1A inh	TRPML1 ag	D2 PAM
COc1ccc(/C=N/NC(=O)c2cccc([N+](=O)[O-])c2)cc1O	-21.8	-0.6	1.4%	2.5	2.2	-0.5
Cn1c(N)c(C(=O)COC(=O)CSc2ccccc2)c(=O)n(C)c1=O	1.2	10.6	-0.1%	-0.8	0.9	-8.4
COc1ccc(C(C)=O)cc1CON=C1CSCc2ccccc21	-2.7	-10.9	1.1%	-3.7	0.2	-7.3
Cc1onc(C(=O)N2CCN(Cc3ccccc3)CC2)c1[N+](=O)[O-]	0.5	6.3	1.3%	0.7	0.5	-0.2
COc1c2c(nc3occc13)C(CC=C(C)C)(OC)C(=O)C=C2 (stereo unspecified)	-4.0	-4.9	-1.1%	0.3	-0.8	0.3
CCOC(CNC(=O)C(=O)Nc1cc2c3c(c1)CC(=O)N3CCC2)OCC	-2.1	2.8	0.1%	4.8	0.1	-4.1
CCCCN1C(=O)C(NC(=O)C2CC2)(C(F)(F)F)C2=C1CC(C)(C)CC2=O (stereo unspecified)	-0.3	3.7	-1.0%	8.3	-0.4	-13.7
COc1ccc(CNC(=O)CCSCc2cccc(Cl)c2)c(OC)c1	3.1	20.5	0.0%	2.8	-0.3	-18.5
O=c1n(Cc2ccc(F)cc2)nc2n1-c1ccccc1SC2	-3.0	15.2	6.0%	17.6	5.4	-0.8
CN(C(=O)Cn1cccc1C1=NC(c2ccccc2)CO1)c1ccccc1 (stereo unspecified)	-4.7	-6.7	-2.9%	-9.8	2.0	-18.4
COc1cc(C2NC(=O)NC(C)=C2C(=O)OC(C)(C)C)ccc1OCC(=O)O (stereo unspecified)	-3.5	1.7	0.7%[38.3 µM]	4.8	-0.5	-6.8
CCN(CC)CCn1c(NCc2cc(OC)ccc2OC)nc2ccccc21	-5.7	-8.0	1.5%	-10.9	3.3	-41.4
CNCc1ccccc1Sc1cccc2ccccc12	-4.6	0.7	-4.8%	-19.7	1.0	-36.6
O=C(Nc1ccc(C(=O)O)cc1)Nc1cccc2ccccc12	-3.3	0.2	0.9%	6.9	1.1	-2.1
Cc1cc(=O)oc2cc(OCC(=O)OCC(=O)Nc3ccc(C(C)C)cc3)ccc12	0.3	4.0	0.0%	-1.7	-0.6	-10.4
CCOC(=O)N1CCN(C(=O)CN(c2cccc(C(F)(F)F)c2)S(C)(=O)=O)CC1	-0.7	12.1	-0.1%	-3.1	2.2	2.1
COc1cc(S(=O)(=O)N2CCCN(C)CC2)ccc1NC(C)=O	1.2	8.2	-1.9%	-0.2	0.0	-1.5
Cc1ccc(C(=O)NCC(=O)OCc2nc3ccsc3c(=O)[nH]2)cc1C	-1.3	2.7	-0.4%	-6.7	0.1	-10.1
O=C(Cn1nnc(-c2ccccc2)n1)OCc1ccccc1	-4.8	22.3	2.3%	11.9	0.2	-0.1
Cc1ccc(C)c(S(=O)(=O)N2CCN(CC(=O)NC(=O)NCc3ccccc3)CC2)c1	1.3	-0.8	0.9%	-0.2	-0.4	-8.6
O=C(CCCc1cccs1)Nc1nc2c(s1)CCCC2	-3.0	3.9	0.9%	15.9	1.3	2.2
CCCCn1c(SCC(N)=O)nc2ccc(N3CCOCC3)cc2c1=O	7.8	2.2	-0.7%	0.0	0.6	-7.4
